Screening results from PubChem BioAssay.
VACV Venus inh: qHTS for Stage-Specific Inhibitors of Vaccinia Orthopoxvirus: Venus Reporter Primary qHTS; Vaccinia virus Venus reporter expression, fluorescence; Potency, µM (series often up to 36.5 µM), for the others: top-dose activity change, negative = inhibition, actives largely listed as inhibitors; actives 0.46% (n = 330,000); AID 720580, 2013; active means well fitted inhibition curve with a large enough effect; inconclusive means small, poorly fitted or top-dose-only effect; inactive means no such curve, though single readings can be large or run the other way; tested in A549 cells; also: nearly all actives have a fitted effect of over 30% in size; inactives centre near -10
Vaccinia mCherry: qHTS for Stage-Specific Inhibitors of Vaccinia Orthopoxvirus: mCherry Reporter Primary qHTS; Vaccinia virus mCherry reporter infection, fluorescence; about a quarter of the inactives have no number; Potency, µM (series often up to 36.5 µM), for inactives: at the highest dose activity change, negative = inhibition, usual class: inhibitors; actives 0.63% (n = 310,000); AID 720579, 2013; active = well fitted inhibition curve with a large enough effect; inconclusive = small, poorly fitted or top-dose-only effect; inactive = no such curve, though single readings can be large or run the other way; tested in A549 cells; also: nearly all actives have a fitted effect of over 35% in size; inactives centre near -10
* marks the source's active call; other numbers are inactive results; i = inactive; ? = inconclusive; · = not tested or not shown; [ ] = dose if it differs, or a comment. % is scaled to controls: 0 for no effect and ±100 for the full control effect; potency is read from the fitted curve at half-maximal effect. An unsorted share of the library; about 0.87% have a hit in one of these screens.

no. | smiles | VACV Venus inh | Vaccinia mCherry
1 | c1ccc(NC2=NCCN2CC2CCC2)cc1 | -4% | -5%
2 | CCOC(=O)C1=C(C)N=c2s/c(=C\C(=O)OC)c(=O)n2C1c1ccc(OC)cc1 (stereo not given) | -12% | ·
3 | Cc1cc(C(=O)Nc2ccccc2N2CCCCC2)no1 | -12% | i
4 | COc1ccccc1-c1nc(S(=O)(=O)c2ccccc2)c(N2CCCCC2)o1 | -7% | -1%
5 | COC(=O)c1[nH]c2cc(OC)c(OC)cc2c1NC(=O)CN1C[C@H]2C[C@@H](C1)c1cccc(=O)n1C2 | -6% | i
6 | C[C@H](NC(=O)OCc1ccccc1)C(=O)N[C@@H](Cc1c[nH]c2ccccc12)C(=O)O | -15% | i
7 | Cc1cccc(-n2c(CNC(=O)c3ccccc3)nnc2SCC(=O)Nc2nccs2)c1 | -16% | i
8 | O=C(CSc1nnc(-c2n[nH]c3ccccc23)n1-c1ccccc1)Nc1ccccc1Cl | -27% | ?
9 | Cc1cc(NC(=O)CSc2nc(=O)cc(N)n2-c2ccc(Cl)cc2)no1 | -10% | i
10 | CC1(C(=O)NS(=O)(=O)c2cccc(Cl)c2)CCN1C(=O)c1ccccc1 (stereo not given) | -6% | 4%
11 | Cc1ccc(NC(=O)C(C)OC(=O)CCN=C2NS(=O)(=O)c3ccccc32)cc1 (stereo not given) | -8% | i
12 | Nc1ccccc1C(=O)OCC(=O)c1ccc2c(c1)OCCO2 | -15% | i
13 | CN(C(=O)COC(=O)c1ccc2c(c1)OCO2)c1c(N)n(Cc2ccccc2)c(=O)[nH]c1=O | -14% | -14%
14 | COc1ccc(CN(C)C(=O)c2cccc(Oc3ccccc3)c2)c(OC)c1OC | -1% | -13%
15 | CCN(CC)CCNC(=O)c1ccc2c(c1)NC(=O)C(CS(=O)(=O)Cc1ccc(F)cc1Cl)N2 (stereo not given) | 0% | -11%
16 | COc1ccccc1CNC(=O)c1ccc2c(c1)N(Cc1cccc(C)c1)C(=O)c1ccccc1S2(=O)=O | 1% | 12%
17 | COc1ccc(Nc2ccc([N+](=O)[O-])cn2)cc1 | -16% | -9%
18 | Nc1ccc(Nc2ccccc2)c(S(=O)(=O)O)c1 | 2% | i
19 | CCOC(=O)c1ccc(N/C=C2\CCCCC2=O)cc1 | 3% | ·
20 | COc1ccccc1OCc1ccc(C(=O)N2CCOCC2)o1 | -7% | -14%
21 | C/C(=N\NC(=O)C(O)(c1ccccc1)c1ccccc1)c1ccc(NC(=O)CCCC(=O)O)cc1 | -16% | i
22 | O=C(CSc1nnc(C2CC2)n1Cc1ccco1)NCC(F)(F)F | -12% | -2%
23 | CC(=O)OC1C=CC2[C@H]3Cc4ccc(O)c5c4[C@@]2(CCN3C)C1O5 (stereo not given in full) | -15% | -6%
24 | Clc1ccc(C2NCCc3[nH]cnc32)cc1 (stereo not given) | -6% | i
25 | CCC(=O)c1ccc(OC(=O)c2cnccn2)cc1 | -1% | i
26 | CC(C)C1OC(CCc2ccccc2)Cc2[nH][nH]c(=O)c21 (stereo not given) | -4% | -15%
27 | CC(=O)OCCNC(=O)c1cccnc1 | 0% | -1%
28 | CCN(C(=O)C(NS(=O)(=O)c1ccc(Br)s1)c1ccccc1)c1ccc(C)c(C)c1 (stereo not given) | ? | -4%
29 | CC1(C)N=C(N)NC(Nc2cccc(Br)c2)=N1 | -11% | -2%
30 | CCOc1ccc(NC(=S)Nc2ccc(OCc3ccccc3)cc2)cc1 | -7% | -7%
31 | N#Cc1ccc(NC(=O)c2cc(=O)c3ccccc3o2)cc1 | -7% | i
32 | CC(=O)Nc1ccc(NC(=O)N2CCCCC2)cc1 | -10% | ·
33 | c1ccc(P(c2ccccc2)c2ccccn2)cc1 | ? | -18%
34 | O=C(NNC(=O)c1ccc(F)cc1)C(=O)N1CCCCC1 | -10% | -11%
35 | Cc1c(C(=O)Oc2ccc(Br)cc2)sc2ncn(Cc3ccccc3F)c(=O)c12 | 5% | -4%
36 | CCCc1cc(=O)[nH]c(SCC(=O)c2cc(C)n(-c3cc(C)on3)c2C)n1 | -6% | -7%
37 | CCCCc1ccc(NC(=S)NCCO)cc1 | -2% | -5%
38 | Cc1cc(Br)ccc1NC(=O)CN(C)C(=O)C1CSC2(C)CCC(=O)N12 (stereo not given) | -13% | -11%
39 | COc1ccc(-c2nc(C(=O)Nc3cccc(C(C)=O)c3)nn2-c2ccccc2Cl)cc1 | 1% | -10%
40 | CCOc1ccccc1NC(=S)NNS(=O)(=O)c1c(C)cc(C)cc1C | -4% | -23%
41 | COc1ccc(NC(=O)CCCSc2nc(-c3ccco3)cc(C(F)(F)F)n2)c(OC)c1 | -16% | -29%
42 | CCC1(c2ccccc2)NC(=S)N(c2ccc(C)c(C)c2)N1 (stereo not given) | -3% | -4%
43 | COc1ccc(OC)c(N(CC(=O)Nc2cccc(C(F)(F)F)c2)S(C)(=O)=O)c1 | -16% | i
44 | O=C(NCCc1ccccc1)c1cnc2n(c1=O)CCS2 | -1% | i
45 | CCCCOC(=O)c1ccc(NC(=O)C2CCCO2)cc1 (stereo not given) | ? | -16%
46 | CCc1ccc(CN(C)C(=O)c2cc(=O)c3ccccc3o2)cc1 | -11% | -9%
47 | COc1c(/C=N/NC(=O)[C@H]2C[C@@H]2c2ccccc2)c(CCN(C)C(C)=O)cc2c1OCO2 | -12% | -22%
48 | O=C(O)CNCP(=O)(O)O | -19% | -9%
49 | Cc1ccc(C2c3[nH]c4ccccc4c3C[C@H]3C(=O)N(c4ccccc4C(=O)NCCN4CCOCC4)C(=O)N23)cc1 (stereo not given in full) | 6% | -9%
50 | O=C1CCC(=O)N1OCCCOc1ccc(Br)cc1Cl | -16% | ·
51 | O=C(CN1C(=O)C2CC=CCC2C1=O)Nc1nc2ccc(F)cc2s1 (stereo not given) | -17% | -12%
52 | CCN(CC)c1ccc(/C=C/c2cc(Cl)nc3ccccc23)cc1 | 3% | -7%
53 | Cc1ccc(NC(=O)N2CCN(C)c3ncccc32)cc1C | -2% | -3%
54 | O=C(/C=C/c1ccco1)N(Cc1ccc(Cl)cc1)C1CCS(=O)(=O)C1 (stereo not given) | -9% | -17%
55 | NC(=O)c1nn(-c2ccccc2)nc1NC(=O)CN1CCCC1 | -14% | -5%
56 | Cc1sc2nc(SCC(=O)NCc3ccco3)n(-c3ccccc3)c(=O)c2c1C | -5% | -2%
57 | O=C(N/N=C\c1cn[nH]c1-c1ccccc1)c1cccnc1 | -12% | i
58 | CC1=C(C(=O)O)N2C(=O)C(NC(=O)c3nn(C)cc3Cl)C2SC1 (stereo not given) | -9% | -11%
59 | COc1ccccc1C(=O)Nc1ccc(C(=O)OCc2cc(=O)n3nc(C4CC4)sc3n2)cc1 | -16% | -16%
60 | O=C(N/C(=C\c1ccc(Br)cc1)C(=O)N1CCCC1)c1cccs1 | -12% | -11%

A different layout for 4 compounds above.
Order of values: VACV Venus inh, Vaccinia mCherry
#57 O=C(N/N=C\c1cn[nH]c1-c1ccccc1)c1cccnc1
 : -12%, i
#59 COc1ccccc1C(=O)Nc1ccc(C(=O)OCc2cc(=O)n3nc(C4CC4)sc3n2)cc1
 : -16%, -16%
#56 Cc1sc2nc(SCC(=O)NCc3ccco3)n(-c3ccccc3)c(=O)c2c1C
 : -5%, -2%
#50 O=C1CCC(=O)N1OCCCOc1ccc(Br)cc1Cl
 : -16%, ·

(list continues)
no. | smiles | VACV Venus inh | Vaccinia mCherry
61 | CCOC(=O)CSc1nnc(CNc2ccc(Cl)cc2)n1Cc1ccccc1 | -1% | ·
62 | COc1cccc(CNC(=O)CCC2CCCN(C(=O)c3cccc(Cl)c3)C2)c1 (stereo not given) | -11% | i
63 | O=C(CCSc1ccccc1)N1CCCC1 | -25% | ?
64 | CCN(CC)CCCN(Cc1cc2cc3c(cc2[nH]c1=O)OCCO3)C(=O)Nc1ccccc1 | -12% | ·
65 | O=C(c1ccc2c(c1)OCO2)C1CCCN(Cc2cc(F)ccc2-n2cccn2)C1 (stereo not given) | 6% | 10%
66 | CC(=O)N1c2ccccc2C(=O)OC1c1cccnc1 (stereo not given) | -12% | ·
67 | Cc1c(C(=O)NCCCN2CCOCC2)sc2ncnc(N3CCN(c4ccccc4)CC3)c12 | -2% | ·
68 | CCc1ccccc1NC(=O)N[C@@H](C)C(=O)OC | -8% | i
69 | CCOC(=O)C1=CCN(S(=O)(=O)c2ccccc2F)C1c1cccc(C)c1 (stereo not given) | -1% | 7%
70 | Cc1ccccc1-n1ncc2c([N+](=O)[O-])cc([N+](=O)[O-])cc21 | -7% | -4%[1.46 µM]
71 | O=C(Nc1ccncc1)c1cn(-c2ccccc2)nc1-c1cccs1 | -28% | ?
72 | COC(CN(C)C(C(=O)NC1CCCCC1)c1ccccc1)OC (stereo not given) | 8% | -2%
73 | COc1cc(NC(=O)c2cc(OC)c(OC)c(OC)c2)cc(-n2cnnn2)c1 | -11% | i
74 | Cc1nn(Cc2noc(C(=O)NCc3ccc4c(c3)OCO4)n2)c(C)c1Br | -5% | -14%
75 | O=C(CCc1c[nH]c2ccccc12)N1CCCC1 | -7% | ?

Brought forward from above: 3 entries, then new ones.
no. | smiles | VACV Venus inh | Vaccinia mCherry
73 | COc1cc(NC(=O)c2cc(OC)c(OC)c(OC)c2)cc(-n2cnnn2)c1 | -11% | i
74 | Cc1nn(Cc2noc(C(=O)NCc3ccc4c(c3)OCO4)n2)c(C)c1Br | -5% | -14%
75 | O=C(CCc1c[nH]c2ccccc12)N1CCCC1 | -7% | ?
76 | Cc1ccc(CCNC(=O)Cn2ncc3c([nH]c4ccccc43)c2=O)cc1 | -3%[7.34 µM] | -1%[7.34 µM]
77 | CCCn1c(-c2ccc(C(=O)OC)cc2)nc2c1c(=O)[nH]c(=O)n2Cc1ccccc1 | 4% | -14%
78 | COc1ccccc1C(=O)NCC(=O)NC(C)c1ccc(-n2ccnc2)cc1 (stereo not given) | -5% | -13%
79 | CC(=O)NCC1CCCN(Cc2cn(-c3ccccc3F)nc2-c2cc(C)sc2C)C1 (stereo not given) | -7% | -15%
80 | Nc1ccccc1SCc1ccccc1Cl | -12% | -20%
81 | C1=CCN(Cc2ccccc2)C1 | -9% | i
82 | COCCNC(=O)c1onc(CSc2cccc(C)c2)c1C(=O)O | -15% | 0%
83 | CCO/C=C1/C(=O)N(c2ccccc2OC)C(=O)c2ccccc21 | 0% | -9%
84 | CCCC(=O)Nc1ccc(-c2nc3cc(C)ccc3o2)cc1 | -7% | -5%
85 | Cc1cc(Nc2ccccc2F)n2nc(-c3ccccc3)nc2n1 | -8% | -22%
86 | CC(NC(=O)C1CCN(c2nnc(-n3cccc3)s2)CC1)C12CC3CC(CC(C3)C1)C2 (stereo not given) | -1% | -10%
87 | Cc1cccc(NS(=O)(=O)c2ccc(NC(=O)N3CCCCC3)cc2)c1 | -19% | -9%
88 | Cc1cc(C)nc(-n2nc(C)c(C3(O)C(=O)Nc4ccc(F)cc43)c2N)n1 (stereo not given) | ? | ·
89 | CCOC(=O)C(C)/C(C)=N\Nc1ccc([N+](=O)[O-])cc1[N+](=O)[O-] (stereo not given) | -3% | -12%
90 | O=C(Nc1ccccc1Oc1ccccc1)C1CC1 | -26% | ·
91 | O=c1c2ccccc2[nH]c(=S)n1Cc1ccc2c(c1)OCO2 | -2% | i
92 | CCCC1CC(=O)NC1(C(=O)OCC)C(=O)OCC (stereo not given) | 0% | -13%
93 | C[C@@H]1CCC[C@]2(O[C@H](CCO)C[C@@H](O)[C@@H]2O)O1 | -1% | i
94 | O=C(CSc1nnc(-c2cnccn2)n1Cc1ccco1)Nc1ccc(Br)cc1 | -9% | ·
95 | Cc1cccc(N2CCN(C(=O)C3CCN(S(=O)(=O)c4cccc5cccnc45)CC3)CC2C)c1 (stereo not given) | -25% | -13%
96 | COCCn1c(=O)[nH]c2cc(C(=O)Nc3cc(OC)c(OC)c(OC)c3)ccc2c1=O | -1% | -6%
97 | CC(=O)c1c(C)nn(CC(O)COc2ccc3ccccc3c2)c1C (stereo not given) | -8% | -1%
98 | COc1ccc(NC(=O)CC2CCCC2)cc1S(=O)(=O)N1CCCCC1 | -25% | -6%
99 | O=C(O)c1nc2cc(Cl)c(Cl)cc2[nH]c1=O | -8% | 0%
100 | CCCCn1c(/N=C/c2ccc(N(C)C)cc2)nc2ccccc21 | -13% | -27%
101 | COc1ccc(OC)c(CNC(=O)Cn2ncc3c([nH]c4ccc(C)cc43)c2=O)c1 | 6% | 15%
102 | COCCNc1nc(Oc2ccc(C(N)=O)cc2)c2sccc2n1 | -12% | -13%
103 | Cc1ccccc1NCc1ccccc1O | -22% | ·
104 | CN(C(=O)c1ccccc1Cl)c1ccccc1C(=O)NCc1ccccc1 | -5% | -13%
105 | Cc1ccc(/C=N/n2c(C)nnc2C)cc1 | -4% | i
106 | C[C@H]1CN([C@@H](C)CO)C(=O)CCCn2nncc2CO[C@H]1CN(C)C(=O)C1CCCCC1 | 6% | -21%
107 | COc1ccc(-n2c(/C=C/c3cccc(F)c3)nc3ccccc3c2=O)cc1Cl | -15% | i
108 | Clc1nc(NCc2ccco2)nc(N2CCCCC2)n1 | -11% | i
109 | COC(=O)[C@@]1(Sc2ccc(C)cc2)CC(=O)N[C@@H]1c1ccccc1 | -1% | i
110 | O=C1N[C@H](Cc2ccccc2)COC(=O)[C@H](Cc2ccc(F)cc2)C/C=C\C[C@@H]1CC(=O)N(CCO)Cc1ccccc1 | -28% | -17%
111 | CCC(C(=O)N1CCC(C(N)=O)CC1)n1nc(C)n2c(cc3occc32)c1=O (stereo not given) | -9% | -2%
